# FGF22 binding – binders of recombinant human FGF22 by thermal shift; Q9HCT0; SYPRO orange fluorescence; percent of sucrose octasulfate shift, DMSO zero; calls only at 9.99 µM; 1.5% of 340,000 active; AID 651658;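 active = melting point raised past a set limit in the mean and every replicate; inconclusive = no clear call; three in four hits are not shown here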
# Target sequence (Q9HCT0 whole entry, looked up): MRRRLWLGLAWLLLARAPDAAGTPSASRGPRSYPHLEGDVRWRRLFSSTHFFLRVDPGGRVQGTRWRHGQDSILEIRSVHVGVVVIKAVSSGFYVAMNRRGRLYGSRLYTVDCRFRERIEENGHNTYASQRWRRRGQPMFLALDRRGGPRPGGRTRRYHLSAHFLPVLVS
# Ecoli rRNA inh – selective bacterial rRNA inhibition in E. coli. E. coli WT GFP vs humanized-ribosome RFP mutants, fluorescence, 24 h; active compounds read low; DMSO median 0, no signal -100. GFP signal change (wild-type ribosome), % (test concentration not listed). 1.6% of 350,000 active. AID 720706;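 active = significant combined selectivity score with lowered wild-type GFP, culture density cut under 30%, mutant RFP and density less affected; inactive = any of these conditions unmet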; note: one replicate is shown; some compounds called inactive have numbers as strong as hits
# AF4-AF9 inh – blocks AF4 peptide binding to human AF9; AlphaScreen, biotin-AF4 peptide binding to FLAG-AF9; inhibition, % at 10 µM; 0.47% of 350,000 active;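 active = every replicate reaching a set inhibition limit, whatever the replicate mean, cut at about 25% in these data; inconclusive = mean inhibition reaches that limit but some replicates miss it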;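 note: 0% = plate neutral control median and 100% = total signal loss; the record names both 10 and 1 µM as test concentration; the first replicate is given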
# Target sequence (P42568 whole entry, looked up): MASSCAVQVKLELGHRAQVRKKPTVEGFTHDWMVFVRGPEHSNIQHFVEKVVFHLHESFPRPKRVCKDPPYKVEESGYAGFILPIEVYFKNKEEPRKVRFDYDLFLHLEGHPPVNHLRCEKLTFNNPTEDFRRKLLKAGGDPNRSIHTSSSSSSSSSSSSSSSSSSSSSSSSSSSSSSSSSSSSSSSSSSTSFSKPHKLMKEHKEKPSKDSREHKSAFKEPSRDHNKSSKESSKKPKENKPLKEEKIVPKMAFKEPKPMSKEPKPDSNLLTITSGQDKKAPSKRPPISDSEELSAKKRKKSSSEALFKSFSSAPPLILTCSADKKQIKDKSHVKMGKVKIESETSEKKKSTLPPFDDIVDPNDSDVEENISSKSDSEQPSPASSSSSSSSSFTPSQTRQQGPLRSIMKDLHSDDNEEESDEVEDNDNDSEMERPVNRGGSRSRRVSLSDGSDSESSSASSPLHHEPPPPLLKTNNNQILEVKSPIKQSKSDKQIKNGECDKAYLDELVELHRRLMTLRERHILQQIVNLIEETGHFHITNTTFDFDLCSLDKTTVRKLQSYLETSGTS
# Ecoli rRNA inh OD600 – second read-out of Ecoli rRNA inh, no call of its own (marks repeat the call); OD600 change, %; measured here: OD600 growth;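 optical density of the mix in the first replicate; 0 = DMSO median and -100 = no signal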
# Ecoli rRNA inh RFP – recorded beside Ecoli rRNA inh, whose call it bears; RFP signal change, %; measured here: RFP humanized mutant strains;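 first replicate; 0 = DMSO median and -100 = no signal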
# The depositor's hits bear a star; i = inactive; ? = inconclusive; & = joins results of further samples.
SMILES,FGF22 binding,Ecoli rRNA inh,Ecoli rRNA inh OD600,Ecoli rRNA inh RFP,AF4-AF9 inh
C[C@@H]1CN([C@H](C)CO)C(=O)c2cccc(NC(=O)Nc3ccc4c(c3)OCO4)c2O[C@@H]1CN(C)C(=O)NC1CCCCC1,i,-5,-3,-0.6,17
C[C@H](O)C#Cc1cnc2c(c1)C(=O)N([C@H](C)CO)C[C@@H](C)[C@@H](CN(C)C(=O)Cc1ccccn1)O2,i,2,4,-1.6,-4.2
c1ccc(C[C@H]2COc3c4ccccc4nn32)cc1,i,3,2,1.0,0.7
Cc1noc(C)c1S(=O)(=O)Nc1ccc2c(c1)C(=O)N([C@@H](C)CO)C[C@@H](C)[C@H](CN(C)Cc1ccc(Cl)c(Cl)c1)OCCCC[C@@H](C)O2,i,-3,-11,2.7,5.0
CNC[C@@H]1Oc2cc(C#CCN(C)C)ccc2S(=O)(=O)N([C@H](C)CO)C[C@H]1C,i,1,2,0.8,15
COc1ccc(OC)c(S(=O)(=O)NCC2CCN(C(=O)C(=O)c3cccs3)CC2)c1,i,-9,-4,3.7,3.5
Cc1cc(Br)cn2c(Cc3ccccc3C(F)(F)F)c(C3CCCCC3)nc12,i,7,-1,-0.8,-0.7
COc1ccc(NC(=O)N(C)C[C@@H]2Oc3c(NS(C)(=O)=O)cccc3C(=O)N([C@@H](C)CO)C[C@H]2C)cc1,i,1,-1,0.2,-2.5
C[C@@H]1CN([C@H](C)CO)C(=O)CCCn2nncc2CO[C@@H]1CN(C)C(=O)CCC(F)(F)F,i,8&0,3&-1,-0.7&-1.1,-2.9&-2.0&-0.6
C[C@@H]1CN([C@@H](C)CO)C(=O)c2cc(-c3ccccc3)cnc2O[C@@H]1CN(C)C(=O)c1ccccc1F,i,7,4,-0.6,-1.6
O=C(COC(=O)/C=C/c1ccccc1)NNC(=O)c1ccccc1F,i,7,11,-0.3,12
COc1cccc(NC(=O)N(C)C[C@@H]2Oc3cc(-c4ccccc4OC)ccc3S(=O)(=O)N([C@H](C)CO)C[C@@H]2C)c1,i,-1,-5,4.1,5.3
Cc1noc(C)c1NC(=O)N(C)C[C@@H]1Oc2ccc(NC(=O)Cc3cn(C)c4ccccc34)cc2CC(=O)N([C@H](C)CO)C[C@H]1C,i,2,6,-1.8,-3.3
C[C@H](CO)N1C[C@H](C)[C@H](CN(C)Cc2ccc(C(=O)O)cc2)Oc2ncc(C3=CCCCC3)cc2C1=O,i,5,8,-1.4,-4.7
C[C@H](CO)N1C[C@H](C)[C@@H](CN(C)C(=O)Nc2ccc(F)cc2)OCc2ccccc2-c2ccccc2C1=O,i,0,1,-4.8,-19
C[C@@H]1CCCCO[C@H](CN(C)CC2CCCCC2)[C@H](C)CN([C@H](C)CO)C(=O)c2cc(NC(=O)C3CCCCC3)ccc2O1,i,4,-1,4.9,-8.6
C[C@H](CO)N1C[C@H](C)[C@@H](CN(C)Cc2ccc(C(=O)O)cc2)Oc2c(NC(=O)Nc3ccc(F)cc3)cccc2C1=O,i,-6,-5,-3.3,1.9
CCOC(=O)C1=CN(Cc2ccco2)S(=O)(=O)N(C)C1CC (configuration not stated),i,-10,2,-6.6,0.2
O=C(Nc1ccn(CCCN2CCN(c3ncccn3)CC2)c(=O)n1)OCc1ccccc1,i,4,10,-0.5,6.8
C[C@@H]1CN([C@@H](C)CO)C(=O)c2cc(-c3ccc(F)cc3)cnc2O[C@H]1CN(C)Cc1cncnc1,i,-4,1,1.2,-4.4
CN1C(=O)c2cc(NC(=O)C3CCC3)ccc2OC[C@H]2O[C@H](CC(=O)NCCc3ccncc3)CC[C@H]21,i,2,4,-3.7,0.7
CCCCN1C(=O)C(CC(=O)NCCCCc2ccccc2)CC(C(=O)N2CCOCC2)=C1C (configuration not stated),i,3,-2,0.7,-2.3
C[C@H](CO)N1C[C@H](C)[C@H](CN(C)Cc2ccc(C(=O)Nc3ccccc3N)cc2)Oc2ccc(NC(=O)Cn3cnnn3)cc2CC1=O,i,1,0,-2.5,1.0
COc1ccc(CN(C)C[C@H]2Oc3ccc(NC(=O)C4CCCCC4)cc3CC(=O)N([C@H](C)CO)C[C@H]2C)cc1,i,-2,-3,-3.8,-2.2
Cc1nn(-c2ccccc2)c2c1CC(=O)Nc1ccccc1-2,i,0,5,-6.6,-3.4
Cc1ccc(C)c(N2N=C(C(=O)Nc3ccc(N4CCOCC4)cc3)CCC2=O)c1,i,0,-1,-0.2,0.4
COC(=O)C[C@@H]1C[C@H]2c3cc(NC(=O)CN(C)C)ccc3O[C@H]2[C@@H](CO)O1,i,4,17,-1.6,-6.6
CN(C)C(=O)c1ccc(-c2ccc([C@H]3[C@@H](C#N)N(C(=O)Nc4ccccc4F)[C@H]3CO)cc2)cc1,i,0,7,-0.4,0.3
COc1cccc(-c2ccc3c(c2)O[C@H](CN(C)C(=O)C2CCC2)[C@@H](C)CN([C@@H](C)CO)S3(=O)=O)c1,i,-15,-31,0.3,3.2
CN1CCCCN2[C@H](CO)[C@H](c3ccc(/C=C/c4ccccc4)cc3)[C@H]2C1,i,-5,-1,-0.9,17
CCCC(=O)Nc1ccc2c(c1)C(=O)N(C)C[C@@H](OC)[C@H](C)CN[C@@H](C)CO2,i,3,0,0.4,-1.5
COc1cccc(NC(=O)N2C[C@H](O)COC[C@@H]3O[C@H](CC(=O)NC4CCC4)CC[C@H]32)c1,i,-1,-4,-4.2,-2.8
CNC[C@H]1Oc2ncc(-c3ccccc3C)cc2C(=O)N([C@@H](C)CO)C[C@H]1C,i,5,-2,-3.3,6.4
COc1ccc(C(=O)N2CCCC(c3cc(C(=O)NCc4cccnc4)no3)C2)cc1 (configuration not stated),i,2,4,3.2,-11
C[C@@H]1CN([C@@H](C)CO)C(=O)c2cccc(NC(=O)Nc3ccc4c(c3)OCO4)c2O[C@H]1CN(C)Cc1ccncc1,i,-10,-7,0.6,-21
CN(CC(=O)Nc1ccccc1Cl)C(=O)c1ccc(N2C(=O)CCC2=O)cc1,i,13,25,-0.3,-7.8
C[C@@H]1CN([C@@H](C)CO)C(=O)c2cc(/C=C/c3ccccc3)cnc2O[C@@H]1CN(C)C(=O)Cc1ccccn1,i,0,1,3.2,0.2
C[C@@H]1CN([C@H](C)CO)S(=O)(=O)c2ccc(-c3cccnc3)cc2O[C@@H]1CN(C)C(=O)C1CCCCC1,i,-4,-6,-0.5,7.7
C[C@H]1CN([C@@H](C)CO)C(=O)c2cccc(NC(=O)Nc3ccc4c(c3)OCO4)c2O[C@H]1CN(C)Cc1ccc(Oc2ccccc2)cc1,i,-1,-10,-1.3,8.2
CC(C)NC(=O)N(C)C[C@@H]1OCCCC[C@@H](C)Oc2ccc(NC(=O)Cc3ccccc3)cc2C(=O)N([C@@H](C)CO)C[C@H]1C,i,1,3,-2.1,-1.4
CCNC(=O)C[C@@H]1CC[C@H]2[C@@H](COC[C@H](O)CN2C(=O)C2CC2)O1,i,3&-1,8&5,-2.9&2.2,-0.7&-4.6
COc1ccc(CN(C)C[C@H]2OCCCC[C@@H](C)Oc3ccc(NC(=O)Nc4ccc(OC)cc4)cc3C(=O)N([C@@H](C)CO)C[C@H]2C)cc1,i,2,-15,7.5,-0.4
O=C(C[C@H]1CC[C@H]2[C@@H](COC[C@@H](O)CN2C(=O)Nc2ccc(F)cc2)O1)NC1Cc2ccccc2C1,i,-4,-3,-1.1,-2.4
O=C(C[C@@H]1CC[C@@H](NS(=O)(=O)c2ccc(F)cc2)[C@@H](CO)O1)NCc1ccc(Cl)c(Cl)c1,i,-11,-23,2.1,-0.6
C[C@@H]1CCCCO[C@@H](CN(C)Cc2ccccc2)[C@H](C)CN([C@H](C)CO)C(=O)c2cc(NC(=O)c3ccncc3)ccc2O1,i,3,8,-1.7,-5.1
C[C@H]1CN([C@@H](C)CO)C(=O)CCCn2cc(nn2)CO[C@H]1CN(C)Cc1ccccc1C(F)(F)F,i,-2,-4,1.6,0.7
CCC(=O)N1CC2(C1)CN(C(=O)CC)[C@@H](CO)c1[nH]c3cc(OC)ccc3c12,i,4,19,-0.1,-1.8
Cc1cccc(CN(C)C[C@@H]2OCc3cnnn3CCCC(=O)N([C@@H](C)CO)C[C@@H]2C)c1,i,-1,1,-0.4,-6.1
CN(C)c1ccc(CNC(=O)C2(C)Cc3c(-c4ccc5c(c4)OCO5)ccnc3O2)cc1 (configuration not stated),i,-15*,-11*,2.6*,?
O=C(C[C@@H]1CC[C@H]2[C@@H](COC[C@@H](O)CN2Cc2ccccc2F)O1)NC1CCC1,i,-2,-6,-3.0,-2.0
COc1ccc(S(=O)(=O)Nc2ccc3c(c2)C(=O)N([C@@H](C)CO)C[C@H](C)[C@@H](CN(C)S(=O)(=O)c2ccc(F)cc2)O3)cc1,i,-1,-4,1.3,0.3
O=C(C[C@H]1C[C@H]2c3cc(NC(=O)C4CCC4)ccc3O[C@H]2[C@@H](CO)O1)NCc1ccc2c(c1)OCO2,i,2,5,-2.2,1.6
CCOC(=O)C1=CCC(c2ccccc2C)N(S(=O)(=O)c2ccc(C)cc2)C1 (configuration not stated),i,-4,-6,-8.8,-4.4
C[C@H]1CN([C@@H](C)CO)C(=O)c2cccc(NC(=O)Nc3ccccc3)c2O[C@H]1CN(C)Cc1ccc(Cl)c(Cl)c1,i,-6,-21,6.8,0.4
CO[C@H]1CN(C)C(=O)c2cc(NC(C)=O)ccc2OC[C@@H](C)N(C(=O)C2CCOCC2)C[C@H]1C,i,0,-6,-0.4,2.7
Cc1ccc(C(=O)NC(CCc2ccccc2)C(=O)O)cc1 (configuration not stated),i,4,-1,5.7,-1.0
C[C@@H]1CN([C@@H](C)CO)C(=O)c2cccc(NS(=O)(=O)c3ccc(F)cc3)c2O[C@H]1CN(C)Cc1ccc(C(=O)O)cc1,i,6,10,-1.3,-2.8
NNC(=O)CNC(=O)Nc1n[nH]c(=S)s1,i,8,2,-1.3,-6.5
C[C@H](CO)N1C[C@H](C)[C@@H](CN(C)C(=O)c2ccccc2F)Oc2ncc(C#C[C@@H](C)O)cc2C1=O,i,11,6,0.1,-2.3
C[C@@H]1CN([C@@H](C)CO)C(=O)c2cc(NC(=O)Nc3ccccc3)ccc2O[C@@H](C)CCCCO[C@@H]1CN(C)S(=O)(=O)c1cn(C)cn1,i,-2,-9,-4.3,-2.7

# Brought forward from above: three entries, then new ones.
SMILES,FGF22 binding,Ecoli rRNA inh,Ecoli rRNA inh OD600,Ecoli rRNA inh RFP,AF4-AF9 inh
NNC(=O)CNC(=O)Nc1n[nH]c(=S)s1,i,8,2,-1.3,-6.5
C[C@H](CO)N1C[C@H](C)[C@@H](CN(C)C(=O)c2ccccc2F)Oc2ncc(C#C[C@@H](C)O)cc2C1=O,i,11,6,0.1,-2.3
C[C@@H]1CN([C@@H](C)CO)C(=O)c2cc(NC(=O)Nc3ccccc3)ccc2O[C@@H](C)CCCCO[C@@H]1CN(C)S(=O)(=O)c1cn(C)cn1,i,-2,-9,-4.3,-2.7
O=C(CN1CCOCC1)N1CCCCN2[C@H](CO)[C@H](c3ccc(C#Cc4ccccc4F)cc3)[C@H]2C1,i,2,-5,0.9,0.2
O=C(C[C@H]1C=C[C@H](NC(=O)Nc2cc(F)ccc2F)[C@@H](CO)O1)NCc1ccc2c(c1)OCO2,i,1,2,-1.9,-2.0
CCCNC(=O)N1C[C@H](C)[C@@H](OC)CN(C)C(=O)c2ccc(NS(C)(=O)=O)cc2OC[C@H]1C,i,2,-2,-1.4,-4.4
Fc1ccc(-c2nc3ccc(Cl)cn3c2Cc2ccsc2)cc1,i,-9,-8,-0.8,2.2
CC(C)C(=O)Nc1ccc2c(c1)C(=O)N(C)[C@@H]1CC[C@H](CC(=O)NCc3ccccc3)O[C@H]1CO2,i,4,7,-4.5,-18
O=C(C[C@H]1C[C@H]2c3cc(NC(=O)Nc4ccc(C(F)(F)F)cc4)ccc3O[C@H]2[C@H](CO)O1)NCc1cc(F)ccc1F,i,6,1,2.5,-21
C[C@H]1CN([C@@H](C)CO)S(=O)(=O)c2ccc(C#CC3CC3)cc2O[C@H]1CN(C)Cc1ccccn1,i,-7,-19,3.2,7.0
CCCC#Cc1cnc2c(c1)C(=O)N([C@H](C)CO)C[C@H](C)[C@@H](CN(C)C(=O)C1CCC1)O2,i,2,2,0.8,-3.3

# Entries of single compounds as entered above. Order of screens: FGF22 binding | Ecoli rRNA inh | Ecoli rRNA inh OD600 | Ecoli rRNA inh RFP | AF4-AF9 inh
# CCCC#Cc1cnc2c(c1)C(=O)N([C@H](C)CO)C[C@H](C)[C@@H](CN(C)C(=O)C1CCC1)O2 as listed: i | 2 | 2 | 0.8 | -3.3
# CC(C)C(=O)Nc1ccc2c(c1)C(=O)N(C)[C@@H]1CC[C@H](CC(=O)NCc3ccccc3)O[C@H]1CO2 as listed: i | 4 | 7 | -4.5 | -18

# Assay outcomes: PubChem, Broad Institute

# Only part of the results is shown; the hit share may differ from the screen's.
